From PubChem
VDR inh: blocks the human vitamin D receptor. VDR-SRC2-3 peptide fluorescence polarization, 2 h. AID 504847. 400,000 tested, 0.93% active. Potency, µM, inactives show max response, negative = inhibition, hits mostly inhibitors; active means well fitted inhibition curve with a large enough effect; inconclusive means small, poorly fitted or top-dose-only effect, or another doubt; inactive means no such curve, though single readings can be large or run the other way; further: series mostly up to about 120 µM
Target sequence (P11473 whole entry, looked up): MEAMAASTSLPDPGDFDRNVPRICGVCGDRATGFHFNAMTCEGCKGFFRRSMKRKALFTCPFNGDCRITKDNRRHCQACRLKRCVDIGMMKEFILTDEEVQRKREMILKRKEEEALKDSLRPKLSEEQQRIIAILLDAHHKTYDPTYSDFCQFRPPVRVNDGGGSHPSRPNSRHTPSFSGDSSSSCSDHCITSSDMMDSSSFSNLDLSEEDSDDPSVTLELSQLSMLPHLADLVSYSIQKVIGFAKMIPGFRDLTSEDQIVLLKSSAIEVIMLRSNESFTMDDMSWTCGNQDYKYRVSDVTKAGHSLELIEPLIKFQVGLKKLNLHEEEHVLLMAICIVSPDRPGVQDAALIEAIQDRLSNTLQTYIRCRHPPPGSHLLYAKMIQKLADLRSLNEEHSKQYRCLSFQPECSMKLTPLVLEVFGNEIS
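After 23 nl compound addition and a short centrifugation, plates sat for 2 hours at ambient temperature; polarization of fluorescence then indicated loss of VDR binding to peptide SRC2-3.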
* hit, by the source's call; ? = inconclusive; & = joins results of further samples; [ ] = another dose, or the depositor's remark. On the % scale 0 is the no-effect control and ±100 the full control effect; potency means the concentration at half of the fitted maximal effect.

| VDR inh | Molecule |
| --- | --- |
| -15% | Cc1ccc(S(=O)(=O)NCC(=O)N2CCN(S(=O)(=O)c3ccc(Cl)cc3)CC2)cc1C |
| 21% | COc1ccc(C(C#N)(CCC#N)CCC#N)cc1OC |
| 4% | Cc1ccc(NC(=O)c2cc(NC(=O)C3CC=CCC3C(=O)O)ccc2N2CCOCC2)cc1Cl (stereo not drawn) |
| 1% | CC(=O)Nc1ccc(NC(=O)[C@@H]2CCCC[C@@H]2C(=O)O)cc1 |
| ? | Cc1ccc(/C=C/C(=O)N2CCN(c3ncccn3)CC2)o1 |
| -13% | Cc1nc2ccc(NC(=O)N3CCCCC3)cc2s1 |
| 9% | CCOc1cc(/C=N/n2cnnc2)c(Br)cc1O |
| -1% | COc1ccccc1N1CCN(c2cc(=O)n(-c3ccc(Cl)cc3)c(=O)[nH]2)CC1 |
| 4% | COC(=O)NCCOC(=O)N(O)c1ccc(Br)cc1 |
| -6% | O=S(=O)(c1ccc(F)cc1F)N1CCN(CCO)CC1 |
| -8% | O=C(COc1ccc2c(c1)OCO2)NC12CC3CC(CC(C3)C1)C2 |
| -6% | Cc1c(CCC(=O)N2CCC(C(=O)O)CC2)c(=O)oc2cc3oc4c(c3cc12)CCCC4 |
| 0% | CC[C@H](C)[C@H](NC(=O)[C@H](CCC(=O)O)NC(=O)CNC(=O)[C@H](CCCCN)NC(=O)[C@H](CCC(=O)O)NC(=O)[C@H](CCSC)NC(=O)[C@H](CCSC)NC(=O)[C@H](CCSC)NC(=O)[C@H](CCC(=O)O)NC(=O)CNC(=O)[C@H](CO)NC(=O)[C@H](CO)NC(=O)[C@H](CO)NC(=O)[C@@H](N)CC(N)=O)C(=O)N[C@@H](CCCCN)C(=O)O |
| 9% | CCOC(=O)Cc1c(C)nc2c(-c3ccc(OC)c(OC)c3)c(C)nn2c1C |
| -7% | O=C(c1ccc(COc2ccc(F)cc2)o1)n1cc(Br)cn1 |
| ? | COC(=O)C1=C[C@@H](C(=O)OC)[C@@H]2C3=C(C(=O)C2(C)C)[C@H](C)n2c(=O)n(-c4ccccc4)c(=O)n2[C@@H]3C1 |
| -12% | CN(C)S(=O)(=O)c1ccc(NC(=O)CSc2n[nH]c(=O)n2C2CC2)cc1 |
| ? | O=C(Nc1ccccc1)c1ccc2nc(-c3ccco3)c(-c3ccco3)nc2c1 |
| -10% | COc1ccc(OCC(=O)Nc2ccc(OC)c(S(=O)(=O)N3CCCCC3)c2)cc1 |
| ? | CC(C)NCc1cccc([N+](=O)[O-])c1 |
| 13%&-5% | CCOC(=O)CSc1nc2ccccc2c(=O)n1-c1ccc(C(=O)NCCOC)cc1 |
| -8% | Cc1cccc(Oc2ccccc2NC(=O)C2=COCCO2)c1 |
| 14% | O=C(OCC(O)CN1CCCCC1)C12CC3CC(CC(C3)C1)C2 (stereo not drawn) |
| -14% | CCOC(=O)C1CCCN(c2c(NCCCN(CC)c3cccc(C)c3)c(=O)c2=O)C1 (stereo not drawn) |
| -3% | O=C(OCC(=O)c1ccc(Cl)cc1Cl)c1cnccn1 |
| 8% | COc1ccc(C2C(C(C)=O)=C(O)C(=O)N2c2ccc(F)cc2)cc1 (stereo not drawn) |
| ? | COc1ccc(-c2nc(CS(=O)CC(=O)NCc3ccccn3)c(C)o2)cc1 (stereo not drawn) |
| 3% | CC(C)CCNC(=O)CCCN1C(=O)c2ccccc2Sc2ncccc21 |
| -60% | Cc1ccc(-c2nn(CCC#N)cc2C=C(C#N)C#N)cc1 |
| 20%&-8% | CCOc1ccc(CCNS(=O)(=O)c2c(C)nc3scc(C)n3c2=O)cc1OCC |
| -2% | CN1C(=O)C(C(=O)Nc2ccccc2F)c2ccccc21 (stereo not drawn) |
| 1% | CCCCNC(=S)Nc1cc(S(=O)(=O)N2CCCCC2)ccc1C |
| 11% | CCOc1cccc2cc(C(N)=O)c(=NCc3ccccc3)oc12 |
| -7% | NC(=O)CN1C(=O)C2CCCCN2C(=O)c2ccccc21 (stereo not drawn) |
| -5% | CC(=O)NC(Cc1cc(C)ccc1C)C(=O)N1CCN(C(=O)c2ccc([N+](=O)[O-])cc2)CC1 (stereo not drawn) |
| 10% | Clc1cccc(Cl)c1/C=N\Nc1nccs1 |
| 6% | Cc1ccc(S(=O)(=O)C(CNC(=O)c2c(F)cccc2F)c2ccco2)cc1 (stereo not drawn) |
| 1% | O=C(O)c1ccc(-n2nncc2-c2ccccc2)cc1 |
| 9% | CCOc1ccc(Nc2cc(C)c3ccccc3n2)cc1 |
| -20% | Oc1ccccc1C1CCCCC1c1ccccc1 (stereo not drawn) |
| -2% | C=CCn1c(/N=C/c2ccc(OC)cc2)nc2ccccc21 |
| -8% | Cc1ccc(C(=O)NCc2ccc(Cl)cc2)o1 |
| -11% | Cn1c(/C=C/c2ccc(Br)cc2)nc2ccccc2c1=O |
| -11% | O=C(/C=C/c1ccc(Cl)cc1)Nc1nccs1 |
| -10% | CN1C(=O)C2(c3ccccc31)N(c1ccc(F)c(Cl)c1)C(=O)CS2(=O)=O (stereo not drawn) |
| 4% | Cc1c(Nc2cc(N3CCCCCC3)c3nonc3c2[N+](=O)[O-])c(=O)n(-c2ccccc2)n1C |
| 7% | COc1ccc(Cl)cc1NC(=O)CN(C)CC(=O)Nc1cc(OC)c(OC)c(OC)c1 |
| -9% | Cc1ccc(S(=O)(=O)NN2C(=O)/C(=C/c3ccccn3)SC2=S)cc1 |
| ? | O=C(COC(=O)c1ccccc1C(=O)c1ccccc1)NCc1ccc(F)cc1 |
| 1% | O=C(CCNC(=O)Cn1ccc2ccccc2c1=O)NCCN1CCN(c2ccccc2F)CC1 |
| -12% | CCOc1ccc(S(=O)(=O)N2CCCCC2)cc1NC(=O)CCc1ccc(OC)cc1 |
| 16% | Cc1cc(C)cc(N(CC(=O)NC2CCCCC2)C(=O)CCC(=O)Nc2cc(C)ccn2)c1 |
| 12% | O=C(Nc1c(C(=O)N2CCOCC2)cnn1-c1ccccc1)c1ccco1 |
| -5% | COc1ccc(-c2csc(NC(=O)c3ccco3)n2)cc1 |
| 11% | CSc1nc(N)nc(N(C)C)n1 |
| 5% | O=C(N/N=C/c1ccc(O)cc1O)c1ccc(CN2C(=O)c3cccc4cccc2c34)cc1 |
| -4% | O=C(CC1C[C@H](C(=O)N2CCCCC2)[C@@]2(CCc3ccccc3)c3[nH]c4ccccc4c3CCN2C1=O)NCc1ccco1 (stereo partly drawn) |
| 4% | COc1ccc(S(=O)(=O)N2CCC(C(=O)N3CCCC3)CC2)cc1C |
| 10% | CCC(=O)N1N=C(c2ccc(NS(C)(=O)=O)cc2)CC1c1ccc(N(C)C)cc1 (stereo not drawn) |
| 0% | CCCC[n+]1ccc(-c2nc3ccc([N+](=O)[O-])cc3[nH]2)cc1 |

Following part.
| VDR inh | Molecule |
| --- | --- |
| -10% | CCOc1ccc(CCNC(=O)Cc2ccc(NC3=NC4CS(=O)(=O)CC4S3)cc2)cc1 (stereo not drawn) |
| -1% | C=CCN1C=CC(=C/C=C(/C#N)C(=O)OCC)C=C1 |
| -6% | COc1ccc(Cl)cc1C(=O)NNC(=O)c1csc(N2CCOCC2)n1 |
| -2% | CCC(=O)Nc1cc(OC)cc(OC)c1 |
| -2% | C=CCn1c(SCC(=O)Nc2ccc(OC)cc2)nnc1-c1cnccn1 |
| 19% | Cc1csc(NC(=O)C2CC(=O)N(c3ccc(C)c(C)c3)C2)n1 (stereo not drawn) |
| -2% | O=C(Cn1c(C(F)(F)F)nc2ccccc21)Oc1cccc(C(F)(F)F)c1 |
| 2% | COc1ccc(OCCCNCCc2ccccc2)cc1 |
| -7% | COC(=O)c1ccc(C(=O)N2CCCC(Nc3ccc(F)c(F)c3)C2)cc1 (stereo not drawn) |
| -21% | CCC(C)c1ccc(NC(=S)NC2CCN(Cc3ccccc3)CC2)cc1 (stereo not drawn) |
| -4% | CC(=O)Nc1ncc(Cc2cc(Cl)ccc2Cl)s1 |
| -6% | NCCCn1c(C(=O)c2ccc(Cl)cc2)c2ccc(C(F)(F)F)cc2[n+]1[O-] |
| -6% | O=C(N/N=C\c1ccccn1)c1cccc(C(=O)N/N=C\c2ccccn2)n1 |
| 0% | O=C(NCCc1ccccc1)/C(=C\c1ccc([N+](=O)[O-])cc1)NC(=O)c1ccc(Br)cc1 |
| 2% | CN1CCN(CC(O)(c2ccc(Cl)cc2)c2ccc(Cl)cc2)CC1 |
| -8% | COc1ccc(OC)c(/C=N/NC(=O)CN2CCSCC2)c1 |
| -20% | O=C(CCNC(=O)N1CCn2c1nc1ccccc12)NCc1ccccc1 |
| 35%[activator] | CC(C)(C)C(=O)N1CCN(c2nc3ccc(Cl)cc3s2)CC1 |
| -11% | COc1ccc(CC(=O)Nc2ccccc2C(=O)N2CCOCC2)cc1OC |
| 8% | O=C(CCc1nc2ccccc2c(=O)[nH]1)NNC(=O)c1ccccc1Cl |
| -23% | Cc1ccc(-c2csc(NC(=O)/C=C/c3ccco3)c2C(=O)O)cc1 |
| -20% | CC1CCC(CN2C(Nc3ccccc3)=NC[C@@H]2C)CC1 (stereo partly drawn) |
| -19% | Cc1ccccc1NC(=O)CN1C(=O)COc2ccc(Cl)cc21 |
| -3% | COCc1cc(Sc2cccc(Cl)c2Cl)nc(-c2ccccc2)n1 |
| -1% | O=C(CCSCCc1ccccn1)Nc1ccc(Br)cc1F |
| 4% | CCOc1ccc(OCc2ccc(C(=O)N3CCCCC3)o2)cc1 |
| -5% | COc1ccc(C(C)C)cc1S(=O)(=O)Nc1ncn[nH]1 |
| -10% | COc1ccc(C(=O)COC(=O)c2sccc2C)cc1OC |
| 1% | Cc1ccc(CNc2ccc([N+](=O)[O-])cc2C(N)=O)cc1 |
| 18% | Cc1ccc(Sc2cc(Cl)nc(N)n2)cc1 |
| 3% | O=C(CCn1c(=S)oc2ccccc21)Nc1cccc(F)c1 |
| -6% | CS(=O)(=O)N1CCN=C1SCc1ccc(Br)cc1 |
| -6% | CCCCN1C(=O)C(O)(CC(=O)c2ccccc2OC)c2ccccc21 (stereo not drawn) |
| -6% | CC(C)C(NC(=O)c1ccc(Cl)cc1Cl)C(=O)N1CCN(S(=O)(=O)c2ccccc2)CC1 (stereo not drawn) |
| 4% | Cn1cccc1C(=O)NC(=O)COC(=O)CC12CC3CC(CC(C3)C1)C2 |
| -25% | CCCNS(=O)(=O)c1ccc(OCC(=O)Nc2ccc3c(c2)OCCO3)c(C)c1 |
| 5% | Cc1cccc(C)c1OCC(=O)NCC1(N(C)C)CCCCC1 |
| 10% | CCOc1ccccc1NC(=O)N1CC(C)Oc2ccc(Cl)cc21 (stereo not drawn) |
| 5% | Cc1ccc(CNC(=O)C2CCC(=O)N(CCc3ccccn3)C2)s1 (stereo not drawn) |
| -13% | COc1ccccc1CNc1nc(-c2cccc(NS(C)(=O)=O)c2)nc2ccccc12 |
| -27% | Cc1ccc(OCCC(=O)N(CC(=O)Nc2ccccc2C(F)(F)F)Cc2ccco2)cc1 |
| 8% | Cc1c(CN2CCC(CO)(CCOc3ccccc3)CC2)[nH]c2ccc(Cl)cc12 |
| -3% | Cc1ccc(C(=O)N/C(=C/c2cn(-c3ccccc3)nc2-c2ccccc2)C(=O)O)cc1 |
| 3% | O=C(CSc1nnnn1-c1ccccc1)CSc1nnnn1-c1ccccc1 |
| -3% | CCOc1ccc2nc(N3CCCC(C(=O)NC4CCCC4)C3)sc2c1 (stereo not drawn) |
| -15% | CCn1ccnc1C(O)(c1ccccc1)c1ccccc1 |
| 0% | CC(C)c1ccccc1OCCCCCN1CCOCC1 |
| 5% | COC(=O)c1cc(S(=O)(=O)N(Cc2ccccc2)C(C)(C)C)c[nH]1 |
| -12% | CC(=O)c1ccc(NC(=O)c2ccc(CNc3c(N4CCOCC4)c(=O)c3=O)cc2)cc1 |
| 12% | CS(=O)(=O)Cc1nc2ccccc2n1CC(=O)Nc1cccc(S(=O)(=O)N2CCCC2)c1 |
| -27% | CCN(CC)CCC(=O)N1c2ccccc2CCc2ccc(NC(=O)OC(C)C)cc21 |
| -15% | CCCOc1ccc(C2c3c(oc4ccccc4c3=O)C(=O)N2c2nnc(C(C)C)s2)cc1 (stereo not drawn) |
| ? | Cc1ccc(S(=O)(=O)N(C(=O)c2ccncc2)c2ccc(OC(=O)c3ccncc3)cc2)cc1 |
| -5% | COC(=O)c1ccccc1S(=O)(=O)NNC(=O)c1ccccc1-n1cccc1 |
| -10% | CCCOc1ccc(NC(=O)CC2C(=O)N(CC)C(=S)N2Cc2cccs2)cc1 (stereo not drawn) |
| 1% | COc1cccc(-c2nc(N3CCN(Cc4ccccc4)CC3)c3ccccc3n2)c1O |
| 18% | CCn1c(=O)c2sccc2n(Cc2cccc(C)c2)c1=O |

Entries above that have fluorine, in the order listed:
| VDR inh | Molecule |
| --- | --- |
| -6% | O=S(=O)(c1ccc(F)cc1F)N1CCN(CCO)CC1 |
| -7% | O=C(c1ccc(COc2ccc(F)cc2)o1)n1cc(Br)cn1 |
| 8% | COc1ccc(C2C(C(C)=O)=C(O)C(=O)N2c2ccc(F)cc2)cc1 (stereo not drawn) |
| -2% | CN1C(=O)C(C(=O)Nc2ccccc2F)c2ccccc21 (stereo not drawn) |
| 6% | Cc1ccc(S(=O)(=O)C(CNC(=O)c2c(F)cccc2F)c2ccco2)cc1 (stereo not drawn) |
| -10% | CN1C(=O)C2(c3ccccc31)N(c1ccc(F)c(Cl)c1)C(=O)CS2(=O)=O (stereo not drawn) |
| ? | O=C(COC(=O)c1ccccc1C(=O)c1ccccc1)NCc1ccc(F)cc1 |
| 1% | O=C(CCNC(=O)Cn1ccc2ccccc2c1=O)NCCN1CCN(c2ccccc2F)CC1 |
| -2% | O=C(Cn1c(C(F)(F)F)nc2ccccc21)Oc1cccc(C(F)(F)F)c1 |
| -7% | COC(=O)c1ccc(C(=O)N2CCCC(Nc3ccc(F)c(F)c3)C2)cc1 (stereo not drawn) |
| -6% | NCCCn1c(C(=O)c2ccc(Cl)cc2)c2ccc(C(F)(F)F)cc2[n+]1[O-] |
| -1% | O=C(CCSCCc1ccccn1)Nc1ccc(Br)cc1F |
| 3% | O=C(CCn1c(=S)oc2ccccc21)Nc1cccc(F)c1 |
| -27% | Cc1ccc(OCCC(=O)N(CC(=O)Nc2ccccc2C(F)(F)F)Cc2ccco2)cc1 |

Some of the compounds tested, so the mix of outcomes need not match the whole.
